# Screening data deposited in PubChem BioAssay by Broad Institute.
# UUG fidelity: modulators of yeast start codon fidelity, primary screen, whole organism, S. cerevisiae, single point, plate reader | S. cerevisiae UUG-firefly luciferase reporter, luminescence/redox ratio | activity score, % at 18.7 µM | 350,000 tested, 0.13% active | AID 602363, 2012;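 active means replicate mean at a twofold rise or more, about +100% in these data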;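 further: firefly luciferase made from a UUG start codon reports start codon fidelity; reporter light over untreated wells divided by growth signal over untreated wells; some hits fall short of that in this replicate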
# * hit, by the source's call. Some of the compounds tested, so the mix of outcomes need not match the whole.
SMILES,UUG fidelity
O=C(NC[C@H]1[C@H](c2ccccc2)[C@H](CO)N1Cc1ccccn1)C1CC1,-18
C[C@H]1CN([C@@H](C)CO)C(=O)c2cccc(NC(=O)C3CCCCC3)c2O[C@H]1CN(C)C(=O)Nc1cccc2ccccc12,-4
CCCNC(=O)C[C@H]1C[C@@H]2c3cc(N(C)C)ccc3O[C@@H]2[C@H](CO)O1,-35
Cc1ccccc1-c1ccc([C@H]2[C@@H](CO)N3CCCCN(C(=O)NC4CCCC4)C[C@@H]23)cc1,4
CO[C@@H]1CN(C)C(=O)c2cc(NC(=O)C3CC3)ccc2OC[C@H](C)N(Cc2cc(F)ccc2F)C[C@H]1C,12
CCC(=O)Nc1ccc2c(c1)C(=O)N(C)C[C@@H](OC)[C@@H](C)CN(C(=O)C1CC1)[C@@H](C)CO2,4
O=C(CC1CC1)N1[C@H](CO)[C@H]2c3ccccc3N(S(=O)(=O)c3ccc(F)cc3)C[C@H]21,30
COC(=O)[C@@H]1[C@@H](CO)[C@@H]2Cn3c(ccc(-c4ccc(F)cc4)c3=O)[C@@H]2N1Cc1ccccn1,-11
COc1ccc(CN(C)C[C@@H]2OCc3cn(nn3)CCCC(=O)N([C@H](C)CO)C[C@@H]2C)cc1,-11
COc1ccc(NC(=O)Nc2cccc3c2O[C@H](CN(C)C(=O)Nc2ccc(F)cc2)[C@@H](C)CN([C@@H](C)CO)C3=O)cc1,9
C/C=C/c1ccc([C@@H]2[C@H](CO)N3CCCCN(C(=O)Nc4ccc(F)cc4)C[C@@H]23)cc1,4
O=C(C1CCOCC1)N1C[C@@H]2[C@H](c3ccccc31)[C@@H](CO)N2Cc1ccccc1Cl,8
C[C@H](CO)N1C[C@H](C)[C@@H](CN(C)S(=O)(=O)c2ccc(F)cc2)Oc2c(NC(=O)c3ccc(-c4nccs4)cc3)cccc2C1=O,21
O=C(C[C@@H]1CC[C@@H]2[C@H](COC[C@H](O)CN2Cc2ccc(Oc3ccccc3)cc2)O1)N1CCOCC1,-1
CCC(=O)N1CC[C@@H]2[C@H]1c1cc(-c3ccc(F)cc3)ccc1N[C@@H]2CO,-4
COCCN(C[C@@H]1[C@@H](c2ccccc2)[C@@H](CO)N1C(C)=O)C(=O)c1ccncc1,-8
C[C@H](CO)N1C[C@H](C)[C@@H](CN(C)C)Oc2ccc(NC(=O)Cc3ccccc3)cc2C1=O,-9
C[C@@H]1CN([C@H](C)CO)C(=O)c2cc(NS(=O)(=O)c3cccs3)ccc2O[C@H]1CN(C)C(=O)Nc1ccc2c(c1)OCO2,4
C[C@@H]1CN([C@@H](C)CO)C(=O)c2cccc(NC(=O)Nc3ccc(C(F)(F)F)cc3)c2O[C@@H]1CN(C)C,-6
C[C@H](CO)N1C[C@H](C)[C@@H](CN(C)S(=O)(=O)c2ccc(Cl)cc2)Oc2ccc(NC(=O)NC3CCCCC3)cc2C1=O,2
C[C@H](CO)N1C[C@H](C)[C@H](CN(C)S(C)(=O)=O)Oc2ccc(NC(=O)Nc3ccc4c(c3)OCO4)cc2C1=O,5
COc1ccc(S(=O)(=O)N(C)C[C@H]2Oc3ccc(NC(=O)CCN4CCOCC4)cc3C(=O)N([C@H](C)CO)C[C@H]2C)cc1,11
CN(C)C(=O)c1cccc(-c2ccc([C@H]3[C@H](CO)N4CCCCN(C(=O)C5CCCC5)C[C@@H]34)cc2)c1,5
CCCN1[C@H](C(=O)NCc2cccc(OC)c2)[C@@H](CO)[C@@H]2Cn3c(ccc(C4=CCCC4)c3=O)[C@@H]21,4
CC(C)CC#Cc1ccc([C@H]2[C@@H](CO)N3CCCCN(S(=O)(=O)c4ccc(F)cc4)C[C@H]23)cc1,81*
OC[C@H]1[C@H](c2ccc(C#Cc3cccnc3)cc2)[C@H]2CN(Cc3ccccc3F)CCCCN21,12
O=C(NC1CCC1)[C@H]1N[C@H]2c3ccc(-c4cccc(F)c4)c(=O)n3C[C@H]2[C@@H]1CO,3
C[C@H](CO)N1C[C@H](C)[C@@H](CN(C)Cc2ccc(C(=O)Nc3ccccc3N)cc2)Oc2ccc(NC(=O)Nc3cccc4ccccc34)cc2C1=O,-9
O=C(C[C@H]1CC[C@@H]2[C@H](COC[C@H](O)CN2Cc2ccc(Cl)cc2)O1)Nc1nccs1,-2
C[C@H](CO)N1C[C@H](C)[C@H](CN(C)S(=O)(=O)c2cccs2)Oc2ccc(NS(C)(=O)=O)cc2C1=O,-3
C[C@@H]1CN([C@@H](C)CO)C(=O)c2cccc(NC(=O)C3CCCCC3)c2O[C@@H]1CN(C)Cc1ccc(Oc2ccccc2)cc1,37
COCC(=O)Nc1ccc2c(c1)OC[C@@H](C)N(C(=O)c1cccnc1)C[C@H](C)[C@H](OC)CN(C)C2=O,-10
C[C@H]1CN([C@@H](C)CO)C(=O)c2c(c3ccccc3n2C)-c2ccccc2CO[C@H]1CN(C)S(=O)(=O)c1ccc(Cl)cc1,-1
O=C(C1CC1)N1C[C@H]2[C@@H](c3ccccc31)[C@@H](CO)N2C(=O)c1ccccc1F,-12
CCCC(=O)Nc1ccc2c(c1)C(=O)N(C)C[C@@H](OC)[C@H](C)CN(C(=O)c1cnccn1)[C@H](C)CO2,4
COC(=O)C[C@@H]1CC[C@@H]2[C@H](COc3ccc(NC(=O)Nc4c(C)noc4C)cc3C(=O)N2C)O1,-7
COc1ccc(CN(C)C[C@@H]2Oc3c(NC(=O)c4ccc(-c5nccs5)cc4)cccc3C(=O)N([C@@H](C)CO)C[C@H]2C)cc1,-8
COc1ccc(CN(C)C[C@H]2Oc3c(NC(=O)NC(C)C)cccc3C(=O)N([C@H](C)CO)C[C@H]2C)cc1,38
C[C@H](NC(=O)C[C@@H]1CC[C@H]2[C@@H](COc3ccc(NC(=O)C4CCOCC4)cc3C(=O)N2C)O1)c1ccccc1,20
C[C@@H]1CN([C@@H](C)CO)C(=O)c2cc(NC(=O)CCCN(C)C)ccc2O[C@@H]1CN(C)S(=O)(=O)c1cccs1,6

# Compounds listed so far that have a thiophene ring, fused or not:
SMILES,UUG fidelity
C[C@@H]1CN([C@H](C)CO)C(=O)c2cc(NS(=O)(=O)c3cccs3)ccc2O[C@H]1CN(C)C(=O)Nc1ccc2c(c1)OCO2,4
C[C@H](CO)N1C[C@H](C)[C@H](CN(C)S(=O)(=O)c2cccs2)Oc2ccc(NS(C)(=O)=O)cc2C1=O,-3
C[C@@H]1CN([C@@H](C)CO)C(=O)c2cc(NC(=O)CCCN(C)C)ccc2O[C@@H]1CN(C)S(=O)(=O)c1cccs1,6

# Some of these compounds in order of the UUG fidelity value, high to low.
Molecule | UUG fidelity
C[C@@H]1CN([C@@H](C)CO)C(=O)c2cccc(NC(=O)C3CCCCC3)c2O[C@@H]1CN(C)Cc1ccc(Oc2ccccc2)cc1 | 37
CN(C)C(=O)c1cccc(-c2ccc([C@H]3[C@H](CO)N4CCCCN(C(=O)C5CCCC5)C[C@@H]34)cc2)c1 | 5
O=C(NC1CCC1)[C@H]1N[C@H]2c3ccc(-c4cccc(F)c4)c(=O)n3C[C@H]2[C@@H]1CO | 3
COc1ccc(CN(C)C[C@@H]2Oc3c(NC(=O)c4ccc(-c5nccs5)cc4)cccc3C(=O)N([C@@H](C)CO)C[C@H]2C)cc1 | -8
COCC(=O)Nc1ccc2c(c1)OC[C@@H](C)N(C(=O)c1cccnc1)C[C@H](C)[C@H](OC)CN(C)C2=O | -10

# Other entries follow:
SMILES,UUG fidelity
O=C(c1ccc(F)cc1)N1CCCCN2[C@@H](CO)[C@@H](c3ccc(-c4ccc(F)cc4)cc3)[C@@H]2C1,-2
CN1CCCCN2[C@@H](CO)[C@H](c3ccc(Br)cc3)[C@@H]2C1,-6
CNC[C@H]1Oc2c(NC(=O)Nc3ccccc3)cccc2C(=O)N([C@@H](C)CO)C[C@@H]1C,4
COCC(=O)N1CCCCN2[C@H](CO)[C@@H](c3ccc(-c4ccc(OC)cc4)cc3)[C@H]2C1,1
CCCNC(=O)Nc1ccc2c(c1)C(=O)N(C)C[C@H](OC)[C@H](C)CN(C(=O)C1CC1)[C@@H](C)CO2,-3
CO[C@@H]1CN(C)C(=O)c2cc(NS(=O)(=O)c3ccc(C)cc3)ccc2OC[C@@H](C)N(C)C[C@@H]1C,9
C[C@H](CO)N1C[C@H](C)[C@H](CN(C)C(=O)Nc2ccccc2C(F)(F)F)OCc2cnnn2CCCC1=O,-9
CO[C@H]1CN(C)C(=O)c2cc(NC(C)=O)ccc2OC[C@@H](C)N(C(=O)Cc2ccccn2)C[C@H]1C,-1
CC(C)NC(=O)N(C)C[C@@H]1Oc2ccc(NC(=O)Cc3ccccc3)cc2CC(=O)N([C@@H](C)CO)C[C@H]1C,13
Cc1ccc(S(=O)(=O)Nc2ccc3c(c2)C(=O)N([C@@H](C)CO)C[C@H](C)[C@H](CN(C)C(=O)Nc2ccc(C(F)(F)F)cc2)O3)cc1,16
C[C@@H]1CN([C@@H](C)CO)C(=O)c2cccc(NC(=O)c3cnccn3)c2O[C@H]1CN(C)S(C)(=O)=O,-12
CC=Cc1ccc2n(c1=O)C[C@H]1[C@H](CO)[C@@H](C(=O)NCc3ccc(F)cc3)[C@@H]2N1S(C)(=O)=O (mixture of isomers),2
Cc1cc(C(=O)Nc2cccc3c2O[C@@H](CN(C)Cc2ccc(C(=O)Nc4ccccc4N)cc2)[C@H](C)CN([C@@H](C)CO)C3=O)n(C)n1,-5
O=C(c1cccc(F)c1)N1C[C@@H]2[C@H](c3ccccc31)[C@@H](CO)N2C(=O)C1CCOCC1,-3
C[C@H]1CN([C@@H](C)CO)C(=O)c2cccc(NS(=O)(=O)c3cccs3)c2O[C@@H]1CN(C)C(=O)Nc1cccc2ccccc12,-5
Cc1noc(C)c1NC(=O)Nc1cccc2c1O[C@@H](CN(C)C)[C@H](C)CN([C@@H](C)CO)C2=O,1
CCN(C[C@H]1N[C@H](CO)[C@H]1c1ccccc1)C(=O)c1ccncc1,-10
COCC(=O)N1CCCCN2[C@@H](CO)[C@@H](c3ccc(-c4ccc(F)cc4)cc3)[C@@H]2C1,-7
C[C@@H]1CN([C@@H](C)CO)C(=O)Cc2cc(NC(=O)c3ccncc3)ccc2O[C@H]1CN(C)S(=O)(=O)c1ccc(F)cc1,-15
CN1C(=O)c2cc(NC(=O)c3cccc(C(F)(F)F)c3)ccc2OC[C@@H]2O[C@@H](CC(=O)NCCN3CCCC3)CC[C@@H]21,14

# Some of the entries so far, with bars between the fields:
structure | UUG fidelity
COc1ccc(NC(=O)Nc2cccc3c2O[C@H](CN(C)C(=O)Nc2ccc(F)cc2)[C@@H](C)CN([C@@H](C)CO)C3=O)cc1 | 9
C/C=C/c1ccc([C@@H]2[C@H](CO)N3CCCCN(C(=O)Nc4ccc(F)cc4)C[C@@H]23)cc1 | 4
O=C(C1CCOCC1)N1C[C@@H]2[C@H](c3ccccc31)[C@@H](CO)N2Cc1ccccc1Cl | 8
C[C@H](CO)N1C[C@H](C)[C@@H](CN(C)S(=O)(=O)c2ccc(F)cc2)Oc2c(NC(=O)c3ccc(-c4nccs4)cc3)cccc2C1=O | 21

# The list continues.
SMILES,UUG fidelity
CCCNC(=O)C[C@H]1C[C@@H]2c3cc(NC(=O)c4ccc5c(c4)OCO5)ccc3O[C@@H]2[C@@H](CO)O1,7
COc1cccc(S(=O)(=O)Nc2ccc3c(c2)C(=O)N(C)[C@H]2CC[C@@H](CC(=O)NCC4CCCCC4)O[C@@H]2CO3)c1,-3
COc1ccc(NC(=O)N(C)C[C@H]2OCc3ccccc3-c3c(n(C)c4ccccc34)C(=O)N([C@@H](C)CO)C[C@@H]2C)cc1,21
CO[C@@H]1CN(C)C(=O)c2cc(NC(=O)C3CCCCC3)ccc2OC[C@@H](C)N(C)C[C@@H]1C,-9
CN(C)C(=O)c1ccc(-c2ccc([C@H]3[C@@H](CO)N4CCCCN(CCC(F)(F)F)C[C@@H]34)cc2)cc1,4
CO[C@H]1CN(C)C(=O)c2cc(NS(C)(=O)=O)ccc2OC[C@@H](C)N(CC2CC2)C[C@@H]1C,-7
O=C(C[C@H]1CC[C@H]2[C@@H](COC[C@H](O)CN2C(=O)C2CCCC2)O1)NCc1ccncc1,-8
Cc1noc(C)c1NC(=O)N(C)C[C@@H]1Oc2c(NC(=O)Nc3ccc(C(F)(F)F)cc3)cccc2C(=O)N([C@H](C)CO)C[C@H]1C,13
COc1ccc(-c2ccc3c(c2)[C@@H]2[C@@H](CCN2C(=O)CN2CCOCC2)[C@H](CO)N3)cc1,-3
COc1ccccc1C(=O)N1C[C@@H]2[C@H](c3ccccc31)[C@H](CO)N2C(=O)C1CC1,-6
CN1C(=O)c2cc(NC(=O)c3cnccn3)ccc2OC[C@H]2O[C@@H](CC(=O)N[C@@H]3CCN(Cc4ccccc4)C3)CC[C@H]21,2
C/C=C/c1ccc([C@@H]2[C@@H](CN(C)C(=O)C3CC3)N(C(=O)CC)[C@H]2CO)cc1,1
Cc1noc(C)c1NC(=O)Nc1ccc2c(c1)CC(=O)N([C@H](C)CO)C[C@H](C)[C@H](CN(C)Cc1ccc(Cl)c(Cl)c1)O2,7
CCCNC(=O)C[C@@H]1CC[C@@H]2[C@@H](COc3ccc(NC(=O)c4ccc(C(F)(F)F)cc4)cc3C(=O)N2C)O1,-16
CO[C@H]1CN(C)C(=O)c2ccc(NS(C)(=O)=O)cc2OC[C@@H](C)NC[C@@H]1C,-12
COCC(=O)Nc1ccc2c(c1)C(=O)N(C)[C@H]1CC[C@@H](CC(=O)NCC(F)(F)F)O[C@@H]1CO2,-1
CN(C)CC#Cc1ccc([C@H]2[C@H](CO)N3CCCCN(C(=O)Nc4ccc(F)cc4)C[C@@H]23)cc1,1
C[C@@H]1CN([C@H](C)CO)C(=O)Cc2cc(NC(=O)Cc3ccccc3)ccc2O[C@H]1CN(C)S(=O)(=O)c1ccc(F)cc1,9
N#Cc1ccc(-c2ccc3c(c2)[C@H]2[C@H](CCN2C(=O)c2ccc(F)cc2)[C@H](CO)N3)cc1,9
C[C@@H]1CN([C@H](C)CO)C(=O)c2cc(NS(=O)(=O)c3cn(C)cn3)ccc2O[C@@H]1CN(C)C(=O)NC1CCCCC1,-9
Cc1ccccc1S(=O)(=O)N1CCCCN2[C@@H](CO)[C@@H](c3ccc(C#CCN(C)C)cc3)[C@@H]2C1,12
O=C(C[C@H]1CC[C@H]2[C@@H](COC[C@H](O)CN2C(=O)c2ccncc2)O1)Nc1ccc(-c2ccccc2)cc1,-7
